# SARS PLP yeast: blocks SARS-CoV papain-like protease in a yeast assay; S. cerevisiae expressing SARS-CoV PLpro, growth rescue; control for the full effect not named in the record; Potency, µM (titrated, usually from 32.9 µM), inactives show at the top dose activity, positive = growth rescue; hit rate 0.19% among 330,000; AID 485353; note: 0% is about no effect; nearly all actives have a fitted effect of over 55% in size; growth read by luminescence after 48 h
# Lassa entry inh: Lassa virus entry inhibition; hit rate 1.2% among 300,000; Lassa virus pseudotype entry inhibition, cell reporter; control for the full effect not named in the record; Potency, µM (doses to about 37.9 µM), without a hit: at the top dose activity change, negative = inhibition, hits mostly inhibitors; active means well fitted inhibition curve with a large enough effect; inconclusive means small, poorly fitted or top-dose-only effect, or effect the other way; inactive means flat fitted curve, though single readings scatter; tested in HEK293 cells; note: % is set by controls: 0 for no effect and ±100 for the full control effect; nearly all actives have a fitted effect of over 50% in size; luciferase read-out
# Cruzain inh Det: inhibitors of Trypanosoma cruzi cruzain with detergent | hit rate 0.43% among 200,000 | purified cruzain, Z-FR-AMC fluorescence, 0.01% Triton | AID 1478 | Potency, µM, inactives show max response, negative = inhibition, actives largely listed as inhibitors | P25779; active = well fitted curve in the direction sought with a large enough effect; inconclusive = small, poorly fitted or top-dose-only effect, or another doubt; inactive = no such curve, though single readings can be large; an effect the other way counts as inactive or inconclusive;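 note: plate controls were neutral wells for no effect and buffer without enzyme for full effect; nearly all actives have a fitted effect of over 40% in size; top concentration of the series not given in the record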
# Target sequence (P25779 123-467 limits assumed): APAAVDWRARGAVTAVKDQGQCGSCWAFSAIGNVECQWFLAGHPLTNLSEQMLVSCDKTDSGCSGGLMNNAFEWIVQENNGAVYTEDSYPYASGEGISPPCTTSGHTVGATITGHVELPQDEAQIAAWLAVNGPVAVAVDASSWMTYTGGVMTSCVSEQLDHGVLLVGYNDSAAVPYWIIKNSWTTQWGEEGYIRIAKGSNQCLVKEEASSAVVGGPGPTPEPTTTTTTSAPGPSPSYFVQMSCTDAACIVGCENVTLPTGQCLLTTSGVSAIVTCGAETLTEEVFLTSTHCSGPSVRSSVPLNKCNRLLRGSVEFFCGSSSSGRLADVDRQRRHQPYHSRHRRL
#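 Cysteine protease activity tested under reducing, mildly acidic conditions (100 mM sodium acetate pH 5.5, 5 mM DTT) plus 0.01% Triton X-100. Cruzain 1.5 nM; substrate Z-FR-AMC 2 uM; 15 min compound preincubation at room temperature.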
# NS1 function inh: inhibitors of influenza NS1 protein function | S. cerevisiae slowed by influenza A NS1, growth recovery by OD600 | Potency, µM (top dose mostly 46.1 µM), inactives show top-dose activity, positive = more growth | hit rate 0.4% among 270,000 | AID 2326; note: actives are rising curves; nearly all actives have a fitted effect of over 50% in size
#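 S. cerevisiae expressing influenza A NS1, grown in glucose, washed, then diluted 1:100 into pH 6.0 -URA galactose medium with 23 nl compound. Growth recovery read as OD600; NS1-free strain serves as control.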
# Cruzain inh noDet: inhibitors of Trypanosoma cruzi cruzain without detergent | P25779 | purified cruzain, Z-FR-AMC fluorescence, no detergent | Potency, µM, for the others: max response, negative = inhibition, usual class: inhibitors | hit rate 2.3% among 200,000 | AID 1476; active = well fitted curve in the direction sought with a large enough effect; inconclusive = small, poorly fitted or top-dose-only effect, or another doubt; inactive = no such curve, though single readings can be large; an effect the other way counts as inactive or inconclusive;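 note: plate controls were enzyme without inhibitor for no effect and buffer without enzyme for full effect; nearly all actives have a fitted effect of over 40% in size; top concentration of the series not given in the record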
#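 Purified cruzain at 1.5 nM, pre-incubated 15 min with compound at room temperature in 100 mM sodium acetate pH 5.5, 5 mM DTT, 0.00005% Triton X-100. Reaction started with 2 uM Z-FR-AMC; AMC fluorescence increase over 60 s gives rate.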
# 2A StopGo: FMDV 2A StopGo reporter, luciferase signal | AID 1159524 | hit rate 1.2% among 410,000 | Potency, µM (top dose mostly 57.9 µM), for inactives: at the highest dose signal change, negative = less light | human cells with a luciferase reporter of 2A StopGo recoding; control for the full effect not named in the record; active = well fitted falling curve with a large enough effect; inconclusive = small, poorly fitted or top-dose-only effect; inactive = no such curve, though single readings can be large or run the other way; tested in HEK293T cells; note: % is set by controls: 0 for no effect and ±100 for the full control effect; nearly all actives have a fitted effect of over 45% in size; luciferase light after 4 h
# Marburg entry inh: inhibitors of Marburg virus binding or cell entry; Marburg virus pseudotyped entry inhibition, cell reporter; control for the full effect not named in the record; about a third of the inactives were read at about 46 µM; Potency, µM (highest dose often 37.8 µM), for the others: at the highest dose activity change, negative = inhibition, most hits filed as inhibitors; hit rate 1.8% among 300,000; AID 540276; active = well fitted inhibition curve with a large enough effect; inconclusive = small, poorly fitted or top-dose-only effect, or effect the other way; inactive = flat fitted curve, though single readings scatter; tested in HEK293 cells; about a fifth of its hits are not listed in these tables; note: % is set by controls: 0 for no effect and ±100 for the full control effect; luciferase read-out
# RE007 growth inh: less growth of the S. pombe RE007 Vpr strain; S. pombe RE007 Vpr strain, BacTiter-Glo ATP luminescence, 24 h; control for the full effect not named in the record; Potency, µM (doses to about 92.2 µM), for inactives: top-dose activity change, negative = less growth; hit rate 0.21% among 360,000; active = well fitted falling curve with a large enough effect; inconclusive = small, poorly fitted or top-dose-only effect; inactive = no such curve, though single readings can be large or run the other way;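 note: % is set by controls: 0 for no effect and ±100 for the full control effect; nearly all actives have a fitted effect of over 50% in size; the assay follows cell death caused by Vpr and the record does not say whether a fall means rescue or toxicity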
#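 Fission yeast strain RE007, carrying one chromosomally integrated HIV-1 vpr copy, was seeded at OD 0.01 in PMG+AL medium with 23 nL pinned compound. After 24 h at 30 °C and 99% humidity, viability was read by BacTiter-Glo luminescence.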
# An asterisk follows results filed as active; ? = inconclusive; nt = no result given; & = joins results of further samples; [ ] = another dose, or the depositor's remark. Unless noted, calls come from the whole dose curve; as a rule, active means well fitted rising curve with a large enough effect; inconclusive means small, poorly fitted or top-dose-only effect; inactive means no such curve, though single readings can be large or run the other way. Potency is the fitted concentration of half-maximal effect.
# The opening 6 entries as a preview:
SMILES,SARS PLP yeast,Lassa entry inh,Cruzain inh Det,NS1 function inh,Cruzain inh noDet,2A StopGo,Marburg entry inh,RE007 growth inh
Cc1cccc(C(=O)Oc2ccc(/C=N/NC(=O)c3ccc(O)cc3)cc2)c1,2.0%,?,nt,-12.4%,nt,?,1.6%,34.2%
COc1ccc(CCNC(=O)c2ccccc2SC)cc1,1.5%,0.5%,nt,-5.4%,nt,12.3%,21.7%[46.1 µM],5.0%
CC(C)(C)n1nnnc1C(c1cc2cc3c(cc2[nH]c1=O)OCCO3)N1CCSCC1 (configuration not stated),?,-12.4%,-12.3%,1.1%,-13.4%,nt,?,7.2%
Clc1ccc(-c2nnc(-c3ccc(Br)cc3)c(N3CCSCC3)n2)cc1,1.4%,0.4%,1.4%,-45.4%,20µM*,18.9%,-7.1%,-3.1%
COC(=O)c1ccc(NC(C(=O)OC)C(C)C)c([N+](=O)[O-])c1 (configuration not stated),6.4%,12.2%,-6.6%,-12.0%,2.6%,0.0%,-12.9%,4.5%
O=c1/c(=C/c2ccc([N+](=O)[O-])cc2)sc2n1CCCN=2,-14.6%,13.9%,-2.7%,-10.7%,-0.5%,23.4%,19.1%,-28.1%

# The list itself, repeating the preview:
SMILES,SARS PLP yeast,Lassa entry inh,Cruzain inh Det,NS1 function inh,Cruzain inh noDet,2A StopGo,Marburg entry inh,RE007 growth inh
Cc1cccc(C(=O)Oc2ccc(/C=N/NC(=O)c3ccc(O)cc3)cc2)c1,2.0%,?,nt,-12.4%,nt,?,1.6%,34.2%
COc1ccc(CCNC(=O)c2ccccc2SC)cc1,1.5%,0.5%,nt,-5.4%,nt,12.3%,21.7%[46.1 µM],5.0%
CC(C)(C)n1nnnc1C(c1cc2cc3c(cc2[nH]c1=O)OCCO3)N1CCSCC1 (configuration not stated),?,-12.4%,-12.3%,1.1%,-13.4%,nt,?,7.2%
Clc1ccc(-c2nnc(-c3ccc(Br)cc3)c(N3CCSCC3)n2)cc1,1.4%,0.4%,1.4%,-45.4%,20µM*,18.9%,-7.1%,-3.1%
COC(=O)c1ccc(NC(C(=O)OC)C(C)C)c([N+](=O)[O-])c1 (configuration not stated),6.4%,12.2%,-6.6%,-12.0%,2.6%,0.0%,-12.9%,4.5%
O=c1/c(=C/c2ccc([N+](=O)[O-])cc2)sc2n1CCCN=2,-14.6%,13.9%,-2.7%,-10.7%,-0.5%,23.4%,19.1%,-28.1%
CCn1nc(C)c(Br)c1-c1nc(-c2cccc(C)c2)no1,0.1%,nt,nt,1.1%,nt,7.6%,nt,-9.2%
Cc1cccc2sc(NS(C)(=O)=O)nc12,0.1%,1.4%[46.1 µM],nt,8.1%,nt,1.3%,2.3%[46.1 µM],13.2%
Cc1ccc(/C=N/NC(=O)CNC(=O)Cc2ccccc2)o1,17.5%,5.6%,-4.4%,0.4%,-10.1%,-4.7%,?,-0.9%
COc1cc(C(=O)N/N=C(\C)Cn2nc([N+](=O)[O-])cc2C)ccc1O,10.3%,-2.4%,-2.7%,12.3%,-9.5%,-20.7%,?,13.7%
COc1cc(/C=C2/C(=O)N(c3ccc(Br)cc3)N=C2C)cc(OC)c1OC,-3.2%,nt,nt,11.2µM*,nt,?,nt,26.9%
CC(C)N1CCc2c(sc(NC(=O)c3nc4ccccc4s3)c2C(N)=O)C1,-1.3%,?,nt,nt,nt,-12.4%,1.8%[46.1 µM],-0.3%
CC(C)c1ccc(OCC(=O)NC2CCCC2)cc1,-3.8%,nt,nt,-39.3%,nt,6.5%,nt,3.5%
COc1ccccc1N1CCN(C2CC(=O)N(c3ccc(Cl)cc3)C2=O)CC1 (configuration not stated),-22.5%,-31.4%,nt,-6.4%,nt,?,-3.9%,?
O=[N+]([O-])c1ccc(CSc2ncnc3c2ncn3[C@@H]2O[C@H](CO)[C@H](O)[C@H]2O)cc1,nt,nt,-5.9%,-18.8%,6.0%,nt,?,nt
O=C(NCc1cccnc1)NC1(c2ccccc2)CC1,-4.5%,nt,-2.3%,-1.2%,-8.0%,-20.3%,nt,4.0%
O=C(c1cccc([N+](=O)[O-])c1)c1ccc2c(c1)OCCOCCOCCO2,-0.4%,22.1%[46.1 µM],nt,-1.9%,nt,-20.0%,?,9.9%
O=c1c2oc3nc4c(cc3c2ncn1CCCc1ccccc1)CCCC4,-0.8%,?,nt,-3.6%,nt,33.9%[activator],?,0.1%
CCOC(=O)c1[nH]ncc1CN1CCc2ccc(NC(=O)C3CCCO3)cc2C1 (configuration not stated),-5.3%,7.7%,nt,0.1%,nt,-4.6%,7.9%,6.0%
N#Cc1ccccc1S(=O)(=O)N1CCN(C(=O)Cc2coc3cc(O)ccc23)CC1,-0.3%,2.7%,nt,nt,nt,-14.4%,-1.6%,0.0%
COc1ccc2c(c1)c(C(C)=O)c(C)n2-c1ccccc1OC,nt,?,nt,nt,nt,-31.2%,5.2%[46.1 µM],9.4%
O=C(C1CC1)N1CCc2cc(Br)cc(S(=O)(=O)NC3CCCCC3)c21,-27.1%,?,-1.8%,-37.1%,?,23.5%,?,2.9%
CN1CCC2(CC1)N=C(c1ccc(F)cc1)C(=S)N2C(=O)c1ccccc1,-4.7%,?,-1.5%,-3.9%,3.5%,-29.2%,?,-3.9%
Nc1c(Cl)ncnc1N/N=C/c1cccnc1,-3.7%,-6.9%,nt,1.5%,nt,-7.6%,22.3%[14.2 µM],-3.0%
CCN(Cc1cnn(C)c1)C(=O)c1cc(COc2ccc3c(c2)CCCC3)on1,1.8%,nt,nt,8.1%,nt,-2.2%,nt,-10.5%
CC1(c2ccccc2)NC(=O)N(CC(=O)Nc2ccc([N+](=O)[O-])cc2)C1=O (configuration not stated),3.5%,-8.5%[46.1 µM],nt,-13.6%,nt,1.3%,?,-10.0%
CN(CC(=O)O)Cc1nc2ccccc2[nH]1,-3.6%,13.9%,1.0%,-4.6%,2.5%,52.4%[activator],14.1%,13.2%
CCCCn1c(CCC(=O)O)ccc1-c1cccs1,-6.8%,nt,-10.9%,-43.9%,1.1%,-15.6%,2.7%,0.7%
COC(=O)Nc1c(-c2ccccc2)nc2ccc(C)cn12,4.7%,18.6%,-2.6%,-0.3%,-1.9%,-20.5%,?,-5.7%
CCOC(=O)c1ccc(NC(=O)Cn2c(=O)cc(C)c3c(C)nn(-c4cccc(F)c4)c32)cc1,nt,-9.6%[46.1 µM],-1.0%,nt,-5.1%,-8.0%,nt,nt
COc1ccccc1OCCNC(=O)Nc1cc(F)c(F)cc1Cl,0.7%,-19.0%,nt,-0.3%,nt,-9.0%,?,-12.9%
Cc1cccc(-n2ccnc2SCC(=O)Nc2nnc(C)s2)c1,6.1%,nt,4.7%,-16.1%,3.5%,-12.0%,nt,-6.5%
CCCN(CCC)C(=O)Cn1c(=O)n(-c2cccc(OC)c2)c(=O)c2c(C)c(C(=O)N(C)C)sc21,nt,2.9%[46.1 µM],1.4%,nt,7.9%,-24.2%,nt,nt
O=C(NCc1ccncc1)C1CCC(=O)N(CCc2ccc(Cl)cc2)C1 (configuration not stated),4.3%,17.2%[46.1 µM],nt,18.5%,nt,11.4%,3.1%[46.1 µM],0.3%
O=C(NCC(c1ccco1)N1CCCCC1)c1cccc(NS(=O)(=O)c2ccc(Br)cc2)c1 (configuration not stated),1.8%,?,nt,nt,nt,11.8%,?,-15.5%
O=C(C1CCN(c2nnc(-n3cccc3)s2)CC1)N1CCN(Cc2ccc3c(c2)OCO3)CC1,-10.2%,-7.2%,-10.4%,-30.4%,-1.6%,-17.6%,0.4%&0.4%,11.6%
COc1ccc(CCNC(=O)CC2SC(=NCCc3ccccc3)NC2=O)cc1 (configuration not stated),-4.4%,-1.3%,0.6%,-7.4%,13.8%,-15.0%,?,-0.4%
Cc1oc(-c2cccc(Cl)c2)nc1CN1CCCC(C(=O)NC(C)c2ccc3c(c2)OCCO3)C1 (configuration not stated),0.8%,nt,-4.1%,-33.9%,-3.6%,20µM*,nt,-21.1%
O=S1(=O)CCN2C(c3ccco3)=CSC2=N1,-22.2%,-7.9%,0.2%,9.1%,-2.5%,-11.7%,11.3%,-0.7%
COc1ccccc1CNC(=O)c1ccc(S(=O)(=O)N(C)c2ccccc2)cc1,-4.1%,-9.7%[46.1 µM],nt,nt,nt,0.7%,2.5%,-11.4%
COc1ccc(C(=O)C2CCCN(Cc3cccn3-c3ccc(Cl)cn3)C2)c(OC)c1 (configuration not stated),-2.7%,?,nt,-5.6%,nt,20µM*,?,-4.4%
CCCN1CCN(CCCNC(=O)c2cc3c(s2)-c2c(C)cccc2OC3)CC1,22.5%,nt,17.8µM*,-4.4%,?,-2.3%&-13.6%,?,1.0%
Cc1cc(C)cc(NC(c2nnc(-c3cccc(F)c3)o2)c2ccc(F)cc2Cl)c1 (configuration not stated),nt,6.5%[46.1 µM],-6.9%,nt,?,-3.4%,?,nt
C/C(=N\NC(N)=S)c1ccncc1,2.1%,nt,nt,-0.9%,nt,-3.1%,nt,-2.3%
CCOC(=O)c1cnc2c([N+](=O)[O-])cnn2c1C,0.4%,-19.4%[46.1 µM],nt,nt,nt,-3.4%,22.0%[46.1 µM],-9.0%
O=C(Nc1ccccc1C(=O)OCc1cc(=O)n2ccsc2n1)c1ccccc1Cl,nt,12.1%[46.1 µM],0.9%,nt,17.2%,0.0%,nt,nt
Cc1ccccc1-c1noc(C(C)NC(=O)c2ccco2)n1 (configuration not stated),-2.1%,-0.1%&15.9%[46.1 µM],-0.1%,-9.7%,-7.0%,18.8%&-6.1%,10.3%&1.4%[46.1 µM],1.2%
CCOc1ccc(-c2nnc(SCC(=O)c3ccccc3)n2-c2ccccc2)cc1,nt,-3.0%[46.1 µM],-0.2%,nt,-11.4%,-18.3%,-0.8%[46.1 µM],nt
Cc1occc1C(=O)n1cnc2ccccc21,?,nt,-0.6%,-25.5%,-4.4%,nt,5.5%,nt
